Screening data from PubChem BioAssay.
hNpr1 antagonist – human Npr1 receptor antagonism; 76,000 tested, 1.6% active; P16066; Potency, µM (series often up to 46.3 µM), without a hit: top-dose activity change, negative = inhibition, most hits filed as inhibitors; HEK293 hNpr1 GloSensor cGMP, ANP-stimulated luminescence; active = well fitted inhibition curve with a large enough effect; inconclusive = small, poorly fitted or top-dose-only effect; inactive = no such curve, though single readings can be large or run the other way;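 note: nearly all actives have a fitted effect of over 60% in size; nearly all hits also lower the signal before the agonist is added; a reference antagonist and vehicle were the controls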
Target sequence (P16066 whole entry, looked up): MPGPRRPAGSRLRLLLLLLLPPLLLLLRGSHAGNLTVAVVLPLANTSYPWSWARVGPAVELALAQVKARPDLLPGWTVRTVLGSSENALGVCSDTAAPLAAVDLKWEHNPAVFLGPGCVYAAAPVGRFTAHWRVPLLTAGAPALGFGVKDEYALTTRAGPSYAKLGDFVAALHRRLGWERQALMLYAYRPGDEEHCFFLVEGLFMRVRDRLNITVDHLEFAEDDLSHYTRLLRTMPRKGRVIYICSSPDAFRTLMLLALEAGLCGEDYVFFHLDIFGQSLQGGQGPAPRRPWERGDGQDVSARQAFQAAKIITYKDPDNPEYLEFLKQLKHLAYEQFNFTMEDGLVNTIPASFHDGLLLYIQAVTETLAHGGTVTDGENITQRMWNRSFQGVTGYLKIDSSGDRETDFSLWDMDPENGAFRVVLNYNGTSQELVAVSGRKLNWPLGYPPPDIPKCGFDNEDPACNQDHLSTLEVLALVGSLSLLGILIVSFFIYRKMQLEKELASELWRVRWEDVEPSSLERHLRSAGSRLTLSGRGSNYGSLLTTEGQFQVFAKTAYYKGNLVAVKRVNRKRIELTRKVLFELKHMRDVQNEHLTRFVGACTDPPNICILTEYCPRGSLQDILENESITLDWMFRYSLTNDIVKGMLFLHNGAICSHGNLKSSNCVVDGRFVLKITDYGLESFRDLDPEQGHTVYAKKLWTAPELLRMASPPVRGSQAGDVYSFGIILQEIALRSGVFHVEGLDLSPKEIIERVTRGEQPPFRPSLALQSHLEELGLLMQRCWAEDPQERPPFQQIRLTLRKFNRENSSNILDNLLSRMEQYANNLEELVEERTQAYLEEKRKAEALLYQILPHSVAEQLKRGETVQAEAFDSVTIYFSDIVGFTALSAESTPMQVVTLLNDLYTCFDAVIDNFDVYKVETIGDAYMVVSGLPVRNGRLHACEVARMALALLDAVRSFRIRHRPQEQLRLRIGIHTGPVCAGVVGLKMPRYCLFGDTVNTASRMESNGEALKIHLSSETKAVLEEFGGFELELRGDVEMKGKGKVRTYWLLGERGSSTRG
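Compound pre-incubated 30 min at room temperature on GloSensor-loaded HEK293 cells stably carrying hNpr1 and the pGS-40F cGMP biosensor. Stimulation uses hNppA at 0.1 nM final; luminescence is taken at baseline and 20 min post-agonist.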
Numbers without * were called inactive; ? = inconclusive; & = joins results of further samples; [ ] = remark or other dose. % is set by controls: 0 for no effect and ±100 for the full control effect; potency is the fitted concentration of half-maximal effect. Not all compounds are listed; rates above refer to the full screens.

Compound | hNpr1 antagonist
O=C(c1ccccc1F)N1CCCC2(C1)C(=NC1CCCC1)NC(=O)N2c1cc(F)cc(F)c1 (stereo not drawn) | -0.8%
CNc1nccc(N2CCC(CC(=O)NCCC(C)C)CC2)n1 | 5.5%
Fc1ccc(CNc2cc3c(cn2)NCCN(Cc2ccccc2)C3)cc1 | -10.4%[70.6 µM]
Cc1noc(C)c1CC(=O)N1[C@@H]2CC[C@H]1CC(NC(=O)c1ccc(F)cc1)C2 (stereo partly drawn) | -5.4%
c1cncc(CN2CCC[C@H]2c2nc(-c3ccnc(N4CCCC4)c3)no2)c1 | -1.7%[70.6 µM]
O=C(c1ccc2c(c1)[nH]c(=O)n2C1CCC(O)CC1)N1CCOCC(O)C1 (stereo not drawn) | 6.8%
O=C(Cc1cccn1-c1cccc(Cl)c1)NCc1cccs1 | -9.9%
CCCOc1ccc(CN2C[C@@H]3C(=O)N(C)C(=O)[C@@H]3C2)cc1OC | 2.9%
COc1ccc(NC(=O)N2C[C@@H]3C[C@H](C2)c2c(NC(=O)c4ccc5c(c4)OCO5)ccc(=O)n2C3)cc1 | 4.0%
COCCN1C(=O)Cc2ccccc2C1C(=O)NCc1cc(F)ccc1F (stereo not drawn) | 0.1%
O=C(Cn1nc2n(c1=O)CCCC2)N1CCN(c2ccccc2F)CC1 | -1.0%
COc1cc(NC(=O)[C@H]2CCC[C@H]2NC(=O)c2cnc(C)cn2)cc(OC)c1 | 3.7%
COCCN1CCC2(CCC1=O)CCN(C(=O)Nc1c(C)cccc1C)CC2 | -1.2%
CCc1cc(=O)n(CC(=O)N(C)c2cccc(C)c2)c(-c2ccccc2)n1 | 2.2%
CCN(CC)C1(Cc2cc(-c3cccc(O)c3)on2)COC1 | 6.0%[70.6 µM]
CCc1nc2nccc(-c3cc(OC)c(OC)c(OC)c3)n2n1 | -2.5%
Cc1cc(C(=O)N2CCOC(CC(c3ccccc3)c3ccccc3)C2)no1 (stereo not drawn) | 0.4%
COCCN1C(=O)c2ccccc2C(C(=O)Nc2ccc(OC)c(OC)c2)C12CCCC2 (stereo not drawn) | -1.3%
Cc1nc2n(n1)C(C(=O)Nc1ccccc1C)CC(=O)N2 (stereo not drawn) | -0.1%
COc1ccc(CC(=O)N2CCN(c3cc(-c4ccccc4)[nH]n3)CC2)cc1 | -19.5%
COc1ccc(-c2cnc3[nH]cc(CC(=O)Nc4ccncc4)c3c2)cc1 | ?
CN1CCC(OC2CCN(C(=O)c3ccc(F)cc3F)CC2)CC1 | -21.2%
O=C(NCc1nnc2c(-c3nc(C4CC4)no3)cccn12)c1cccnc1 | -0.4%
O=C(c1ccco1)N1CCC(Cc2nc(C3CCOCC3)no2)CC1 | 6.2%
Cc1ccccc1C(=O)Nc1ccc([C@H]2OCC(=O)N(CC(C)C)[C@@H]2CO)cc1 | ?

Brought forward from above: three entries, followed by the next part.
Compound | hNpr1 antagonist
O=C(NCc1nnc2c(-c3nc(C4CC4)no3)cccn12)c1cccnc1 | -0.4%
O=C(c1ccco1)N1CCC(Cc2nc(C3CCOCC3)no2)CC1 | 6.2%
Cc1ccccc1C(=O)Nc1ccc([C@H]2OCC(=O)N(CC(C)C)[C@@H]2CO)cc1 | ?
COCCN1Cc2ccc(NCc3ccccc3)nc2C(C)(C(=O)NC2COC2)C1 (stereo not drawn) | 6.9%[70.6 µM]
CN(C)c1ccc(C(=O)N2CCN3C(=O)c4cc(-c5ccc6c(c5)OCO6)ccc4NC(=O)[C@H]3C2)cc1 | -13.3%
Cc1noc2c(N3CCOCC3)cc(-c3ccsc3)nc12 | 4.2%[70.6 µM]
COc1ccc(S(=O)(=O)N2CCc3nc4cc(-c5ccccc5)[nH]n4c(=O)c3C2)cc1 | -4.7%
O=C(NCCc1noc(C2CCCO2)n1)c1cnc(-c2cccnc2)nc1 (stereo not drawn) | -3.5%
O=C(c1ccc(C(F)(F)F)cc1)N1CCn2c(nnc2C2CCCNC2)C1 (stereo not drawn) | 12.3%
Cc1oc(C(C)C)cc1C(=O)N1CC[C@](C)(O)[C@@H](O)C1 | 1.5%
CC(C(=O)NCc1ccco1)C1CCOCC1 (stereo not drawn) | -22.7%
COc1cccc(CNC(=O)[C@@H]2C[C@@H](O)CN2C2CCN(C(=O)Cc3cccc(OC)c3)CC2)c1 | 0.0%
O=C(CCn1ccn2nc3c(c2c1=O)CCCC3)NCc1ccc(F)cc1 | 2.1%
Cc1noc2c(NCCN(C)C)cc(-c3ccccn3)nc12 | 0.9%[70.6 µM]
CN(Cc1ccc(F)cc1)C(=O)c1ccc(Cl)nc1 | 12.6%[70.6 µM]
Cc1ccc2c(n1)N(C)[C@H](CO)CCN(Cc1ccc(OC(F)(F)F)cc1)C2 | 3.6%[70.6 µM]
CC(C)NC(=O)c1ccc(N2CC3CC(C2)[C@H]2CCCC(=O)N2C3)nc1 (stereo partly drawn) | 0.2%
CS(=O)(=O)N1CCC(OC2CCN(C(=O)C3CCOC3)CC2)CC1 (stereo not drawn) | 10.2%
CN(C)CCOCC1(C)COc2ccc(C(=O)Nc3cccc(N(C)C)c3)cc2N1 (stereo not drawn) | 0.7%[70.6 µM]
CN(Cc1cnccn1)C(=O)c1sc2cccc(F)c2c1Cl | 0.6%
CC(C)C[C@@H](NC(=O)C1=C[C@@H](NC(=O)c2cccs2)[C@@H](O)[C@H](O)C1)C(N)=O | -1.2%[70.6 µM]
COc1cccc([S+](=O)([O-])N2CCC3(CC2)C(=O)NN=C3C2CC2)c1 | -0.6%
O=C(c1ccc(Cl)cc1)N1CC[C@H]2COC(=O)N2c2cc(F)ccc2C1 | 6.0%[70.6 µM]
Cc1ccc2nc([C@H]3CCN(C4CCC4)C3)[nH]c2c1 | ?
O=C1CC2(CCN(C(=O)CCn3ccccc3=O)C2)C(=O)N1 (stereo not drawn) | -4.6%
Cc1ncsc1CN1CCCCCCNC(=O)[C@@H]2CCC[C@@H]21 | -3.4%
O=C1CCN(Cc2ccncc2)CCCC(C(=O)NCCc2c[nH]c3ccccc23)CCN1 (stereo not drawn) | 0.7%
COc1ccc(CN2CCOc3nc(-c4cc(F)cc(OC)c4)ncc3C2=O)cc1 | -18.4%[70.6 µM]
COc1ccc(-c2nc(C(C)C)nc3c2CCN(C(=O)c2ccc(C)cc2)CC3)cc1 | 5.4%
Cc1nn(C)cc1-c1nc2cc(S(=O)(=O)NC(C)C)ccc2n1C(C)C | -1.8%
COc1ccc(-c2nc(C(C)C)nc3c2CCN(C(=O)Nc2ccc(Cl)cc2)CC3)cc1 | 0.2%
O=C(NCc1ccco1)N1CCOc2ccc(CN3CCc4ccccc4C3)cc2C1 | 0.1%
O=C1Nc2ccccc2CC12CCN(Cc1ccsc1)CC2 | 0.0%[70.6 µM]
COC1CN(c2ccc(C)cc2)C12CCN(C(=O)c1nccc3ccccc13)CC2 (stereo not drawn) | -10.5%
O=C(CCc1ccccc1)N1CCC(c2n[nH]c(=O)n2-c2ccccc2)CC1 | 2.7%
CCc1nc2c(c(-c3ccc(O)cc3)n1)CCN(Cc1cccn1C)CC2 | 6.3%
O=C(Nc1ccc(Cl)nc1)c1cccn2nccc12 | 16.7%[70.6 µM]
CC(=O)N1CCN(C(=O)C[C@@H]2C[C@@H](C(C)C)[C@H](CNC(=O)c3cncnc3)C=C2C)CC1 | 4.4%
CCCN(C)c1nccnc1OC1CCN(C(=O)CC)C1 (stereo not drawn) | 3.7%
N#Cc1cccc(C(=O)Nc2ccc([C@@H](O)[C@H]3COCC(=O)N3Cc3ccccc3F)cc2)c1 | 4.0%
CCN1CCN(C(=O)c2ccc3c(c2)n(Cc2cccc(F)c2)c(=O)c2ccnn23)CC1 | 2.7%
COc1ccc(N2CC(C(=O)N3CCC(C(=O)NCC(F)F)C3)NC2=O)cc1 (stereo not drawn) | 12.8%&17.7%
CN(C)c1cccc(NC(=O)Cc2c[nH]c3ncc(-c4ccccc4)cc23)c1 | ?
COCC1CN(C2CCC2)CC12CCN(C(=O)NCc1ccccc1)CC2 (stereo not drawn) | -20.5%
CCc1noc(-c2cn(C3CCN(C(=O)Cc4ccc(C)cc4)CC3)nn2)n1 | 2.4%
COc1ccc(CN2CC3(COCC2=O)CN(c2ccccc2)C3)cc1F | -18.2%[70.6 µM]
O=C(c1ccc2cc[nH]c2c1)N1CCN(C(=O)c2nnn3c2COC(c2ccc(Cl)cc2)C3)CC1 (stereo not drawn) | ?
COc1ccc(-c2nc(C)nc3c2CCN(Cc2cccn2C)CC3)cc1 | -2.0%
Cc1nc(CNC(=O)c2cc(Cn3ccnc3C(C)C)[nH]n2)sc1C | 0.9%
Cc1cccc(CN2CCc3ncc(C(=O)NCc4ccccc4)n3CC2)c1 | 4.8%[70.6 µM]
CC(=O)N1CCc2nc(C(C)C)nc(-c3ccc(O)cc3)c2CC1 | 2.2%[70.6 µM]
CC1=C[C@@H](CNC(=O)COc2ccccc2)[C@H](C(C)C)C[C@H]1CC(=O)NCCN(C)C | 3.6%[70.6 µM]
CN(C)C[C@@H]1CN(S(C)(=O)=O)C[C@H]1NC(=O)C1(c2ccccc2)CCCC1 | -3.3%

(next part)
Compound | hNpr1 antagonist
CCCN(CC1CCOC1)C(=O)Nc1ccccc1CC (stereo not drawn) | 2.4%
Cn1nc(C(=O)N2CCCC(c3[nH]ccc3C(N)=O)C2)c2ccccc21 (stereo not drawn) | 11.8%
NC(=O)[C@@H]1CN(C(=O)c2cccnn2)C[C@H]1COc1ccccc1 | -2.2%
O=C1NCCOCCCN(S(=O)(=O)c2ccc3c(c2)CCC3)[C@H]2CCCC[C@@H]12 | 3.2%
COc1ccc(-c2cc(N3CCCC(NC(=O)c4cccc(C)c4)C3)n[nH]2)cc1 (stereo not drawn) | -15.8%
CC(=O)c1ccc(NC(=O)Cn2c(-c3ccc(F)cc3)nc(C)cc2=O)cc1 | -17.3%
COCCC(=O)N[C@H]1CC[C@]2(C)CCC([C@H](C)C(=O)NCc3ccc(F)cc3)[C@H](O)[C@H]2[C@@H]1C (stereo partly drawn) | -0.2%
COc1ccc(C(=O)N2CC[C@H]3COC(=O)N3c3cc(F)ccc3C2)cc1 | 5.1%[70.6 µM]
CNC(=O)CN1CN(c2ccccc2)C2(CCN(C(=O)NC34CC5CC(CC(C5)C3)C4)CC2)C1=O | 3.3%
Cc1cn2nc(C(=O)NCc3ccc(Cl)cc3)cc2c(N2CCCC2)n1 | 5.9%
CCOc1cc(=O)n2c(c1C(=O)Nc1ccccc1C)CCCC2 | -11.2%
CNC(=O)[C@@H]1CN(C(=O)c2ccsc2)C[C@H]1c1nc(C)no1 | 1.5%
CCC(C(=O)NCc1nnc2cc(-c3nc(C4CC4)no3)ccn12)c1ccccc1 (stereo not drawn) | 8.2%
O=C1[C@@H]2C[C@@H](CN2C2CCCC2)Oc2ccccc2N1Cc1ccccc1 | -28.9%[70.6 µM]
CCCN1CCCC2(CCN(S(=O)(=O)c3cccc(OC)c3)C2)C1=O (stereo not drawn) | 1.8%
COc1ccccc1CCNC(=O)C1CC(=O)N(c2n[nH]c3cccc(F)c23)C1 (stereo not drawn) | -8.0%
COc1cccc(CN2CCC3(CC2)C(C(=O)O)CC(=O)N3C)c1OC (stereo not drawn) | 4.1%
CC(=O)c1ccc(NC(=O)Cn2cccc2-c2nc(-c3ccc4c(c3)OCO4)no2)cc1 | -19.8%
COCC1CN(C(C)=O)CC12CCN(C(=O)CN1CCCCCC1)CC2 (stereo not drawn) | -11.1%
O=C(CCc1nnn2c1CN(Cc1ccc(Br)o1)CC2)N1CCCC1 | -2.6%
CN(C)C1(Cc2cc(-c3ccc(F)cc3)on2)COC1 | 1.3%[70.6 µM]
CN1CCCC2(CCN(C(=O)c3cc(=O)[nH]c4ccc(F)cc34)C2)C1=O (stereo not drawn) | 0.9%
COc1ccc(-c2cc(-c3ccccc3O)cn3cncc23)cc1 | -22.9%[70.6 µM]
COC(=O)C1=C(C)N=C2SC=C(CC(=O)NCc3ccccc3F)N2C1c1ccccc1Cl (stereo not drawn) | -21.8%
O=C(C1CC1)N1CCC2(CC1)CC(Cc1nc(-c3ccncc3)no1)CCO2 (stereo not drawn) | ?
Cc1nnc(-c2cc(-c3ccsc3)ccn2)n1Cc1ccncc1 | 5.9%[70.6 µM]
CC(=O)N[C@H]1[C@H](O)[C@H](O)C[C@@H]1c1ccc(C(F)(F)F)nc1 | 9.5%[70.6 µM]
COc1ccc(C2(C(=O)NCC(=O)N3CCCCCNC(=O)CC3c3ccccc3)CC2)cc1 (stereo not drawn) | -0.8%
O=C1CC(c2noc(-c3ccccc3Cl)n2)CN1c1ccc(F)cc1 (stereo not drawn) | 3.5%
CN(CCN1CCCCCC1)C(=O)c1cc(COc2ccccc2)[nH]n1 | 1.2%
Cc1ccccc1[C@H]1C[C@@H](O)[C@@H](O)[C@@H]1NC(=O)c1cccnc1Oc1ccccc1 | -15.6%[70.6 µM]
COCC(=O)N(C1CCOCC1)C1CCN(C(=O)c2ccccc2F)CC1 | 4.7%
Fc1ccc(-c2ccc(CNCc3ccco3)o2)cc1 | -5.9%
CC(C)OCCCNC(=O)CN1CC2CC(C1)[C@H]1CCCC(=O)N1C2 (stereo partly drawn) | 4.7%
CC(C)c1ccc(CN2C[C@@H]3[C@H](C2)N(CCOc2ccccc2)C(=O)C(C)(C)[S+]3(=O)[O-])cc1 | -0.6%
C=CCNC(=O)c1ccc2ccnn2c1 | 18.2%[70.6 µM]
O=C(NC[C@H]1O[C@@H](CO)[C@@H](O)[C@H]1N1CCN(c2ccccc2)CC1)Nc1ccc(F)cc1F | 11.5%
COc1ccc(Nc2nc(-c3cccc(OC)c3)no2)cc1 | ?
